Bioassay records (PubChem BioAssay)
TRPML1 ag: agonists of human TRPML1 channel; Q9GZU1; TRPML1-expressing cells, Ca2+ dye fluorescence, FDSS; host cell line not named in the record; reference of the full effect not given here; activation, % (no concentration beside the values); hit rate 0.12% among 410,000; in the data active = activation above about 50%; inconclusive = about 30% to 50%; inactive = below about 30%; also: 0% is about no effect; the text of the record puts the active cut at 80%
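Kinetic FDSS Ca2+ read in Tet-induced TRPML1-DL cells (ABD Ca8 dye plus quencher, 45-90 min RT loading): baseline, then compound, then 110 s agonist window; EC80 agonist 54-4 at 4uM final added afterwards for a 110 s antagonist window.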
CtBP-E1A inh: CtBP/E1A binding inhibition; AlphaScreen GST-E1A/His-CtBP binding, 1536-well; hits give low values; control for the full effect not named in the record; activity change, % (no concentration beside the values); hit rate 0.49% among 340,000; in the data active means activity change below about -65%; inconclusive means about -30% to -65%; inactive means above about -30%; also: % is scaled to controls: 0 for no effect and ±100 for the full control effect; compound concentration not given in the record
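GST-E1A and His-tagged CtBP (125 nM each as 5X stock) were preincubated with pin-transferred compound for 2 h at 37 °C in the dark, then glutathione donor and nickel acceptor beads were added for 1 h before AlphaScreen reading.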
PINK1 modulator: modulators of PINK1 expression; PINK1 immunofluorescence, high-content cytometry, 24 h; Potency, µM (highest dose often 76.6 µM), without a hit: at the highest dose activation (PINK1 increase), actives largely listed as activators; hit rate 0.2% among 410,000; AID 624263; active = well fitted activation curve with a large enough effect; inconclusive = small, poorly fitted or top-dose-only effect; inactive = flat fitted curve, though single readings scatter; cell line not stated here;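 also: potency is read from the fitted curve at half-maximal effect; % of control where 0% means no effect; nearly all actives have a fitted effect of over 65% in size; a mitochondrial uncoupler was the plate control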
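Decision-based qHTS: stable cells, 24 h exposure to five compound concentrations, CCCP as control. Fixed cells stained for PINK1 plus nuclear, mitochondrial and cell markers, cytometer read.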
Six1-Eya2 inh: Six1/Eya2 interaction inhibition | Q15475+O00167 | AlphaScreen GST-Six1/His-Eya2 binding, biochemical; hits give low values; control for the full effect not named in the record | activity change, % (test concentration not listed) | hit rate 0.56% among 360,000; in the data active = activity change below about -65%; inconclusive = about -30% to -65%; inactive = above about -30%; also: % is scaled to controls: 0 for no effect and ±100 for the full control effect; compound concentration not given in the record
Target sequence (O00167 whole entry, looked up): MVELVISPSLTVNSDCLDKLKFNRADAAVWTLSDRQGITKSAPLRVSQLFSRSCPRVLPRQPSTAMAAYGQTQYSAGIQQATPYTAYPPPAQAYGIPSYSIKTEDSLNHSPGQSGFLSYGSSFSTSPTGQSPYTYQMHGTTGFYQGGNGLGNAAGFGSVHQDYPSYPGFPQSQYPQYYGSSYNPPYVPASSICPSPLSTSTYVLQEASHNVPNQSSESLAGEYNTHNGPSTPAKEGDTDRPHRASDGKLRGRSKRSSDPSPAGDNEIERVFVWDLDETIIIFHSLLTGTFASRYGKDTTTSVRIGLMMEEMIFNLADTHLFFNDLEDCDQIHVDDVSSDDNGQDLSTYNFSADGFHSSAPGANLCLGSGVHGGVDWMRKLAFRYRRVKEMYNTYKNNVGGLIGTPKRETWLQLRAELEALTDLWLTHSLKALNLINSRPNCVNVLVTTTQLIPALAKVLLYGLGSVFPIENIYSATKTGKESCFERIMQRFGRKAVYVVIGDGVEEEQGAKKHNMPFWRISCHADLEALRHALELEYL
Target sequence (Q15475 whole entry, looked up): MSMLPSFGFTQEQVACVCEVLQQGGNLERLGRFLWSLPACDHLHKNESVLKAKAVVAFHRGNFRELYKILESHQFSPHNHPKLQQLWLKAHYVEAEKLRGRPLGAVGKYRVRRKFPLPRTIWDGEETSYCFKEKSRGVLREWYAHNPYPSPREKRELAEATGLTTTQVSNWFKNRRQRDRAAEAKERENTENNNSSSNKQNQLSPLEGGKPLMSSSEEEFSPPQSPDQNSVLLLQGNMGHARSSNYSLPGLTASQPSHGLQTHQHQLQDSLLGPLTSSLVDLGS
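Compounds are tested against tagged Six1 and Eya2 proteins bridged by glutathione donor and nickel acceptor beads; after a one-hour incubation at 37 °C without light, AlphaScreen emission is recorded.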
D2 PAM: human D2 receptor positive allosteric modulation; P14416; DiscoveRx D2 beta-arrestin cells, luminescence, 90 min; 100% = 57 uM dopamine signal; potentiation, % (concentration not given with the values); hit rate 0.23% among 360,000; active = potentiation of 50% or more; inconclusive = 30% to 50%; inactive = 30% or less;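 also: compound concentration not given in the record; tested on top of an EC20 dose of dopamine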
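PathHunter D2 cells, attached overnight at 37 deg C, received compound in DMSO plus dopamine at EC20 (50 nM final) for 90 min at 37 deg C. Beta-arrestin recruitment was read as luminescence after 1 h with detection reagent at ambient temperature.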
D2 agonist: activates the human D2 dopamine receptor. activation, % (no concentration beside the values). AID 624465. hit rate 0.084% among 360,000. DiscoveRx PathHunter D2 beta-arrestin, luminescence, 90 min; 100% = 57 uM dopamine signal; in the data active = activation above about 40%; inconclusive = about 15% to 40%; inactive = below about 15%; also: compound concentration not given in the record; the text of the record calls up to 30% inactive
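Agonist mode: compounds alone added to overnight-plated D2 PathHunter cells for 90 min at 37 C, with 57 uM final dopamine (EC100) defining full response. Beta-arrestin recruitment detected by chemiluminescent reagent, read after 1 h at ambient temperature.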
Numbers without * were called inactive; [ ] = another dose, or the depositor's remark.

For O=C(NNS(=O)(=O)c1ccccc1Cl)c1nn(-c2ccc(F)cc2)ccc1=O the results were TRPML1 ag 0.4, CtBP-E1A inh 0.0, PINK1 modulator 1.4%, Six1-Eya2 inh 17.6, D2 PAM 2.1 and D2 agonist -7.4.
For CCOC(=O)c1c(NC(=O)Cn2nc(C(=O)O)c3ccccc3c2=O)sc2c1CCC(C)C2 (stereo not drawn) the results were TRPML1 ag -0.1, CtBP-E1A inh -14.2, PINK1 modulator 8.1%, Six1-Eya2 inh -4.5, D2 PAM 2.0 and D2 agonist 6.1.
`C[n+]1cccc2cccc([O-])c21` gave TRPML1 ag -0.4, PINK1 modulator -0.9%, Six1-Eya2 inh -13.1, D2 PAM -6.2 and D2 agonist 4.2.
For Cc1ccc(C)c(NC(=O)C2CCCN2/C=C/C(=O)C(F)(F)F)c1 (stereo not drawn) the results were TRPML1 ag 0.2, CtBP-E1A inh -7.0, PINK1 modulator 1.0%, Six1-Eya2 inh 3.8, D2 PAM -3.3 and D2 agonist 0.4.
O=C(Cc1ccccc1)N/N=C/c1cccnc1 was read as TRPML1 ag -0.4, CtBP-E1A inh 9.9, PINK1 modulator 3.7%, Six1-Eya2 inh 1.4, D2 PAM -2.0 and D2 agonist -0.2.
CC(=O)c1cccc(OC(=O)c2cc(S(=O)(=O)N3CCOCC3)ccc2N2CCCC2)c1 was read as TRPML1 ag -0.5, CtBP-E1A inh -14.7, PINK1 modulator 0.2%, Six1-Eya2 inh -13.4, D2 PAM -5.5 and D2 agonist 1.5.
Screening Cc1nc2cc(S(=O)(=O)N(C)C)ccc2n1-c1ccccc1 returned TRPML1 ag 0.4, CtBP-E1A inh -2.6, PINK1 modulator -1.2%, Six1-Eya2 inh 8.0, D2 PAM -3.6 and D2 agonist -0.1.
For CCOc1ccc(C(=O)Nc2ccc(S(=O)(=O)N3C[C@@H]4C[C@@H](C3)c3cccc(=O)n3C4)cc2)cc1 the results were TRPML1 ag -0.4, CtBP-E1A inh -24.7, PINK1 modulator 7.9%, Six1-Eya2 inh -4.6, D2 PAM -1.7 and D2 agonist -2.5.
CC(C)CC(=O)NNC(=S)Nc1ccc(S(N)(=O)=O)cc1 was read as TRPML1 ag 0.9, CtBP-E1A inh -7.3, PINK1 modulator 0.5%, Six1-Eya2 inh 6.6, D2 PAM -27.0 and D2 agonist -7.2.
Screening O=C(O)C(Cc1ccnc2ccccc12)=NO returned TRPML1 ag 0.1, CtBP-E1A inh 7.3, PINK1 modulator -4.5%, Six1-Eya2 inh -2.1, D2 PAM -10.8 and D2 agonist -2.7.

Overlap with the part before: three entries, then new ones.
For CCOc1ccc(C(=O)Nc2ccc(S(=O)(=O)N3C[C@@H]4C[C@@H](C3)c3cccc(=O)n3C4)cc2)cc1 the results were TRPML1 ag -0.4, CtBP-E1A inh -24.7, PINK1 modulator 7.9%, Six1-Eya2 inh -4.6, D2 PAM -1.7 and D2 agonist -2.5.
CC(C)CC(=O)NNC(=S)Nc1ccc(S(N)(=O)=O)cc1 was read as TRPML1 ag 0.9, CtBP-E1A inh -7.3, PINK1 modulator 0.5%, Six1-Eya2 inh 6.6, D2 PAM -27.0 and D2 agonist -7.2.
Screening O=C(O)C(Cc1ccnc2ccccc12)=NO returned TRPML1 ag 0.1, CtBP-E1A inh 7.3, PINK1 modulator -4.5%, Six1-Eya2 inh -2.1, D2 PAM -10.8 and D2 agonist -2.7.
For Cn1nccc1-c1cc(Cl)cc(Cl)c1O the results were TRPML1 ag 0.2, CtBP-E1A inh 6.9, PINK1 modulator -0.5%, Six1-Eya2 inh 8.2, D2 PAM -15.5 and D2 agonist -1.7.
For COC1C=CC(CNC(=O)c2cc3c(=O)n4cccc(C)c4nc3n2C)(OC)O1 (stereo not drawn) the results were TRPML1 ag 0.5, CtBP-E1A inh -18.4, PINK1 modulator 2.5%, Six1-Eya2 inh -11.4, D2 PAM -0.5 and D2 agonist 2.6.
`Cc1ccc(C(CNC(=O)Nc2cccc(C)c2)N2CCN(C)CC2)cc1` (stereo not drawn) gave TRPML1 ag 0.6, CtBP-E1A inh 0.0, PINK1 modulator -0.2%, Six1-Eya2 inh -11.6, D2 PAM -29.8 and D2 agonist -2.1.
Cc1c(S(=O)(=O)N2CCN(C(c3ccccc3)c3ccccc3)CC2)c(=O)n(C)c(=O)n1C was read as TRPML1 ag -0.1, CtBP-E1A inh -1.8, PINK1 modulator 1.2%, Six1-Eya2 inh 0.1, D2 PAM -6.7 and D2 agonist -8.4.
`CC(=O)N1CCN(S(=O)(=O)c2ccc(S(=O)(=O)NC3CCCCC3)cc2)CC1` gave TRPML1 ag -1.2, CtBP-E1A inh 14.6, PINK1 modulator 1.2%, Six1-Eya2 inh 11.6, D2 PAM -10.9 and D2 agonist -5.0.
`COc1ccccc1N1C(=O)C2CC(C)=C(C)CC2C1=O` (stereo not drawn) gave TRPML1 ag 0.4, CtBP-E1A inh 0.9, PINK1 modulator 5.8%[38.3 µM], Six1-Eya2 inh 3.2, D2 PAM 3.5 and D2 agonist -1.9.
CC(=O)c1cc2c(cc1NC(=O)CN1CCCCCC1)OCO2 was read as TRPML1 ag -0.6, CtBP-E1A inh -0.8, PINK1 modulator 0.3%, Six1-Eya2 inh -3.3, D2 PAM -1.7 and D2 agonist -2.2.
Screening O=C(CCSc1nnc2scc(-c3ccccc3)n12)Nc1nc(-c2ccccc2)ns1 returned TRPML1 ag 0.0, CtBP-E1A inh 4.3, PINK1 modulator 7.8%, Six1-Eya2 inh 1.2, D2 PAM -14.6 and D2 agonist -3.6.
`COc1ccc(C2CC(c3ccc(Cl)cc3Cl)Nc3nc(N)nn32)cc1` (stereo not drawn) gave TRPML1 ag 1.0, CtBP-E1A inh -1.3, PINK1 modulator 1.9%, Six1-Eya2 inh -12.5, D2 PAM 0.4 and D2 agonist -0.6.
For C#CCOCCOCCOCCNc1nc(N2CCOCC2)nc(N2CCN(C(=O)[C@H](C)n3cc(CCCN=C(N)N)nn3)CC2)n1 the results were TRPML1 ag -0.2, CtBP-E1A inh -11.0, PINK1 modulator 3.5%, Six1-Eya2 inh 5.5, D2 PAM -57.2 and D2 agonist -1.2.
`Cc1ccc(-c2nc3cccnc3s2)cc1NS(C)(=O)=O` gave TRPML1 ag 0.2, CtBP-E1A inh -1.8, PINK1 modulator -1.8%, Six1-Eya2 inh 0.7, D2 PAM -9.7 and D2 agonist -2.2.
`COc1ccc(CCN(C)C(=O)c2cc(-c3ccc(C)cc3)nc3ccccc23)cc1OC` gave TRPML1 ag -0.3, CtBP-E1A inh -11.6, PINK1 modulator 1.7%, Six1-Eya2 inh 15.5, D2 PAM 0.6 and D2 agonist -0.1.
For O=C(NCC(=O)N(CC1CCCO1)C(C(=O)NC1CCCC1)c1cccnc1)c1ccco1 (stereo not drawn) the results were TRPML1 ag -0.3, CtBP-E1A inh 2.5, PINK1 modulator 0.1%, Six1-Eya2 inh -1.5, D2 PAM -12.7 and D2 agonist -3.9.
Screening O=C(O)CCCc1nc(-c2ccccc2)no1 returned TRPML1 ag 1.1, CtBP-E1A inh -15.8, PINK1 modulator 0.1%, Six1-Eya2 inh 1.1, D2 PAM -4.4 and D2 agonist 2.9.
COc1cccc(N(C(=O)c2snc(C(N)=O)c2N)C(C(=O)NCC2CCCO2)c2c[nH]c3ccccc23)c1 (stereo not drawn) was read as TRPML1 ag 0.5, CtBP-E1A inh -8.5, PINK1 modulator -2.8%, Six1-Eya2 inh -2.4, D2 PAM -3.6 and D2 agonist -1.1.
COc1ccccc1OCC(=O)N/N=C1\CCCCc2ccccc21 was read as TRPML1 ag 3.9, CtBP-E1A inh 0.5, PINK1 modulator -1.5%, Six1-Eya2 inh 0.0, D2 PAM -6.8 and D2 agonist -1.0.
`Cc1c(Cl)cccc1S(=O)(=O)Nc1ccnn1C` gave TRPML1 ag 0.0, CtBP-E1A inh 1.5, PINK1 modulator 3.0%, Six1-Eya2 inh 5.5, D2 PAM -8.7 and D2 agonist -1.8.
Screening O=C1Nc2ccccc2/C1=N\N1CCOCC1 returned TRPML1 ag -0.5, CtBP-E1A inh 8.8, PINK1 modulator -1.0%, Six1-Eya2 inh 1.6, D2 PAM -7.6 and D2 agonist -4.7.
For O=C(NCCc1ccccn1)c1cc(-c2ccccc2Cl)nc2ccccc12 the results were TRPML1 ag -0.3, CtBP-E1A inh 1.2, PINK1 modulator -1.2%, Six1-Eya2 inh 6.7, D2 PAM -12.4 and D2 agonist -1.3.
For O=C(OCc1nnc(-c2ccccc2)o1)c1ccco1 the results were TRPML1 ag 1.0, CtBP-E1A inh 5.9, PINK1 modulator 0.7%, Six1-Eya2 inh 4.0, D2 PAM 10.7 and D2 agonist -1.3.
`CCOC(=O)C1CCCN(S(=O)(=O)c2ccc3ccccc3c2)C1` (stereo not drawn) gave TRPML1 ag 0.9, CtBP-E1A inh 3.7, PINK1 modulator 3.2%, Six1-Eya2 inh 2.4, D2 PAM 2.4 and D2 agonist -1.0.
For N#C/C(C(=O)NCc1ccccc1)=C1/N=C(NC(=O)c2ccco2)c2ccccc21 the results were TRPML1 ag 0.3, CtBP-E1A inh 7.3, PINK1 modulator 12.6%, Six1-Eya2 inh 5.1, D2 PAM -3.6 and D2 agonist 3.0.
`Cc1ccc2c(c1)N(C(=O)CCC(=O)NCCCN1CCN(C)CC1)CC(C)O2` (stereo not drawn) gave TRPML1 ag 0.2, CtBP-E1A inh 7.4, PINK1 modulator 0.1%, Six1-Eya2 inh 0.1, D2 PAM -5.6 and D2 agonist -2.2.
For O=C(NCCCN1CCCC1=O)[C@H](CSCc1ccccc1)N1Cc2ccccc2C1=O the results were TRPML1 ag 0.5, CtBP-E1A inh 0.0, PINK1 modulator -0.6%, Six1-Eya2 inh 0.0, D2 PAM -4.5 and D2 agonist 1.8.
Screening COc1cccc(NC(=O)c2ocnc2C)c1 returned TRPML1 ag -0.2, CtBP-E1A inh 10.3, PINK1 modulator 2.7%, Six1-Eya2 inh 5.8, D2 PAM 1.3 and D2 agonist -1.3.
Screening COc1ccc(N2CC(C(=O)Nc3ccncc3)CC2=O)cc1 (stereo not drawn) returned TRPML1 ag -0.4, CtBP-E1A inh 3.6, PINK1 modulator 0.2%, Six1-Eya2 inh -1.0, D2 PAM 2.7 and D2 agonist 2.9.
`CCC(C(=O)Nc1nc(C)c(C(=O)OC)s1)c1ccccc1` (stereo not drawn) gave TRPML1 ag 0.6, CtBP-E1A inh -7.9, PINK1 modulator 3.1%, Six1-Eya2 inh 2.4, D2 PAM -4.8 and D2 agonist -0.4.
`COc1ccc(OCCSc2nnc(CCNC(=O)c3ccc(Cl)c(Cl)c3)n2C)cc1` gave TRPML1 ag 0.8, CtBP-E1A inh -3.8, PINK1 modulator 0.6%[38.3 µM], Six1-Eya2 inh -16.3, D2 PAM -4.9 and D2 agonist -1.4.
`CC(=O)c1ccc(NC(=O)c2ccc(-n3cnnn3)cc2)cc1` gave TRPML1 ag 0.6, CtBP-E1A inh -1.0, PINK1 modulator 6.3%, Six1-Eya2 inh -7.7, D2 PAM 4.8 and D2 agonist -2.6.
`O=S(=O)(c1cccc2cccnc12)n1cnc2ccccc21` gave TRPML1 ag 1.3, CtBP-E1A inh 2.0, PINK1 modulator -1.0%, Six1-Eya2 inh 8.0, D2 PAM -20.0 and D2 agonist 0.3.
